Screens (PubChem BioAssay)
CapD inh – Bacillus anthracis CapD inhibitors, primary screen, biochemical, fluorescence intensity; CapD gamma-glutamyltranspeptidase (Bacillus anthracis Ames Ancestor); 0.23% of 140,000 active; z-score (no concentration beside the values); purified CapD enzyme, fluorescence intensity read-out; active compounds read low; some hits fall short of the stated cut;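 active = z-score under -4 in either of two replicates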;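 note: stock transfer was 100 nL into about 40 µL; score is relative to mean and spread of the plate; one replicate is shown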
AID504770 – growth inhibition of E. coli YBA685, primary screen, V. cholerae RctB inhibitors; z-score (no concentration beside the values); E. coli YBA685 rctB-dependent plasmid, OD600 growth, 3 h; active compounds read low; 0.27% of 130,000 active; AID 504770, 2011;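 active = z-score under -2 on both plates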;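 note: wells of about 30 µL received 100 nL stock; score is relative to mean and SD of the test wells; the first replicate is given; strong numbers were not always called active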
* marks the source's active call; other numbers are inactive results; . = not tested or not shown; & = joins results of further samples.

Results follow in this order: CapD inh, AID504770
CC(COc1ccccc1)N(CCCl)Cc1ccccc1 (configuration not stated)
  -0.14&66, .
COc1ccc2[nH]cc(CCN3C(=O)c4ccccc4C3=O)c2c1
  0.28, -0.75
COc1ccc2nc(Cl)c(/C=N/NC3CCS(=O)(=O)C3)cc2c1 (configuration not stated)
  ., 0.15
CCOc1ccc(NC(=O)CSc2nc3ccccc3n2S(=O)(=O)c2ccc(Br)cc2)cc1
  0.29, .
OCCNC(=S)Nc1ccc(-c2n[nH]c(=S)o2)cc1
  4.4, .
C=C(C)Cc1c(COC)nc(SC)[nH]c1=O
  -0.22, -2.8
CC(C)(C)c1csc(Cc2ccc(-c3csnn3)cc2)n1
  0.72, 0.35
CC(C)=CC(=O)N1CCN(c2cccc(C(F)(F)F)c2)CC1
  ., -0.15
O=C(NC(=S)Nc1nn[nH]n1)C1CCCCC1
  ., -0.25
O=C(CSc1nnc(-c2ccccc2)c(-c2ccccc2)n1)Nc1ccccc1
  -0.16, .
CCOC(=O)c1c(C)[nH]c(C(=O)CSc2nc(C)nc3sc4c(c23)CCC4)c1C
  0.17, .
CCOC(=O)c1cc2cccc(NS(=O)(=O)c3ccc(S(C)(=O)=O)cc3)c2[nH]1
  -0.79, .
O=C1c2ccccc2C(O)(Cc2ccccc2)N1C1CCCCC1 (configuration not stated)
  -0.39, -0.5
CC(=O)N1c2ccc(S(=O)(=O)N3CCCCC3)cc2CC1C (configuration not stated)
  -0.35, -0.65
O=C(c1ccc(-c2ccccc2Cl)o1)N1CCOCC1
  -0.06, -0.35
COc1ccccc1C(=O)Nc1ccc(-c2nc3c(ccc4ccccc43)o2)cc1
  97, .
COc1ccc(-n2c(SCC(=O)NC(C)(C)C)nc3ccccc32)cc1
  -0.1, 1.6
CCC1CCCCN1C(=O)CSc1nnc(-c2cccnc2)n1-c1ccc(OC)cc1 (configuration not stated)
  ., 0.75
CC(=O)NS(=O)(=O)c1ccc(NC(=O)C(C)NS(=O)(=O)/C=C/c2ccccc2)cc1 (configuration not stated)
  ., 0
CC(Sc1nc2sc3c(c2c(=O)n1Cc1ccco1)CCC3)c1nc2ccccc2c(=O)[nH]1 (configuration not stated)
  ., -0.4
Nc1nnc(SCC(=O)N2CCCCCC2)s1
  ., -1.9
Cc1ccc2c(COC(=O)Cn3c(C)csc3=O)cc(=O)oc2c1C
  ., -1.7
CCOC(=O)C1(C)NC(c2ccc(F)cc2)C2C(=O)N(CC)C(=O)C21 (configuration not stated)
  ., -0.8
COc1cc(/C=N/NC(N)=O)cc2sc(=O)oc12
  0.24, -0.2
N#CC1=C(N)N2CCCSC2=C(C#N)C1c1ccccc1 (configuration not stated)
  ., 0.25
CCOc1ccccc1-c1cc(NC(=O)Cn2ncc3c(=O)oc4ccc(C)cc4c32)on1
  -0.45, -0.1
CC(=O)Nc1ccc(S(=O)(=O)N2CCN(c3ncc(-c4ccc(Cl)cc4)cn3)CC2)cc1
  6, .
O=S(=O)(NCC1COc2ccccc2O1)c1ccc(Br)cc1 (configuration not stated)
  -0.2, .
O=C1NC(=O)C(=Cc2ccc(OCc3c(F)cccc3Cl)cc2)C(=O)N1
  0.11, .
CN(C)C(=O)CSc1nc2cc(S(=O)(=O)N3CCOCC3)ccc2o1
  ., -1
CC(C)=CCOc1cc(C)cc2oc(=O)cc(-c3ccccc3)c12
  -0.45, -1
CCOc1ccc(N2C(=O)/C(=C\c3ccc(N(C)C)cc3)S(=O)(=O)C2c2cccc([N+](=O)[O-])c2)cc1 (configuration not stated)
  -0.09, .
O=C(CCS(=O)(=O)c1cccc2nonc12)NCc1ccc(Cl)cc1
  0.45, .
COc1ccc2c(c1)sc(=NC(=O)CSCC(=O)N1CCCc3ccccc31)n2C
  1, 0.15
Cn1c(=O)c2c(SCCN3CCCC3)nc(C3CCCC3)nc2n(C)c1=O
  ., -1.1
Cc1ccc(NC(=O)CC(=O)O)cc1
  ., 0.9
N#Cc1ccc(OCC(=O)NC2CCCCCC2)cc1
  -0.64, -0.15
O=C1CC(Sc2ccc(Cl)cc2)C(=O)N1c1ccc(Br)cc1 (configuration not stated)
  -0.1, -0.1
COc1cc(/C=C2\C(=O)NC(=O)N(c3ccccc3)C2=O)c([N+](=O)[O-])cc1OC
  2.6, .
COc1ccc(/C=C/C(=O)Nc2ccc3nc(N4CCCCC4)cc(C)c3c2)cc1
  -0.03, .
O=C(CNc1ccc(Cl)cc1)NCC1CCCO1 (configuration not stated)
  0.53, -0.05
CC(CCc1ccccc1)NC(=O)COc1ncnc2ccccc12 (configuration not stated)
  0.4, -0.6
COc1cccc(Oc2nnnn2-c2ccccc2)c1
  0.56, 0.1
COc1ccc(-c2cnn(-c3ccc(NC(=O)Nc4cccc(C(F)(F)F)c4)cc3)c2)cc1
  2.4, .
CSCCC(NC=O)C(=O)NC(Cc1ccccc1)C(=O)O (configuration not stated)
  0.03, .

Following part.
compound	CapD inh	AID504770
COc1ccc(C)cc1N(CC(=O)Nc1ccc(-c2nc3ccc(C)cc3s2)cc1)S(C)(=O)=O	20	.
OC(CNCc1ccc(Cl)cc1Cl)(c1ccccc1)c1ccc(F)cc1 (configuration not stated)	-0.06	.
NNc1nc2sc3c(c2c(=O)[nH]1)CCCC3	.	0.05
CCOC(=O)N1CCN(C(=O)C2CCC(=O)N(c3ccc(OC)cc3)C2c2ccc(F)cc2)CC1 (configuration not stated)	-0.23	-3.2
Cc1c(C(c2ccccc2O)c2c(C)n(C)n(-c3ccccc3)c2=O)c(=O)n(-c2ccccc2)n1C	0.08	.
O=C1OC(c2ccccc2)=C/C1=C/c1ccccc1	-0.15	1
COc1ccccc1NC(=O)CSc1nc2ccccc2c2nc3ccccc3n12	0.43	1.1
Cc1ccc(-c2nnc(SCc3ccccc3F)o2)cc1	0.15	-0.7
COc1ccc2[nH]c3c(=O)n(CCCCC(=O)N4CCN(c5ncccn5)CC4)c(=S)[nH]c3c2c1	0.89	-0.7
NS(=O)(=O)c1cc(Cl)c(NC(=O)c2c(O)c3ccccc3[nH]c2=O)c(Cl)c1	2.8	.
CNc1ncc(C(=O)c2ccccc2)s1	-2.6	1.8
CCCNC(=O)c1cc(=O)n(Cc2ccc(Cl)cc2)c2ccccc12	0.23	-0.7
CCc1nnc(NC(=O)c2sc3nc(C)cc(C(F)(F)F)c3c2N)s1	-0.68	.
O=C1C2CC=C(Cl)CC2C(=O)N1CCO (configuration not stated)	-0.56	1.3
CC(C)(C)N1NC2(CCCCC2)NC1=S	0.14	-0.65
CCN(CC)c1ccc(C(F)(F)F)cn1	-2	2.1
COc1ccc(-c2nnc(SCC(=O)N3CCN(C)CC3)nc2-c2ccc(OC)cc2)cc1	-0.75	.
CC(C)c1ccc(N=Cc2cccs2)cc1	-1.1	1.9
Cc1cc(Br)c(NC(=O)c2ccc(Cl)cc2)c(Br)c1	-0.1	.
Cc1ccc(S(=O)(=O)n2c(CN3CCCC(C)C3)nc3ccccc32)cc1 (configuration not stated)	.	0.2
CCCNS(=O)(=O)c1cc2c3c(c1)c(C)cc(=O)n3CCC2	.	0.15
O=C(Nc1ccc([N+](=O)[O-])cc1)C1COc2ccccc2O1 (configuration not stated)	-0.35	.
Cc1cccc(N2CCN(Cc3csc(C)c3C)CC2C)c1 (configuration not stated)	0.28	-0.95
Cc1cc(CSc2nnc(-c3ccccc3)c3ccccc23)no1	.	-0.45
C=CCn1c(=O)c2ccccc2n2c(SCC(=O)c3ccc[nH]3)nnc12	.	-0.45
C=CCC(NCc1ccccc1)c1ccccc1 (configuration not stated)	0.075	-0.6
FC(F)(F)c1ccc(N2CCN(Cc3cc(Cl)cc4c3OCOC4)CC2)nc1	0.47	0.5
COc1ccc(-c2nc3ccccc3c(=O)n2NC(=O)/C=C/c2ccccc2Cl)cc1OC	-0.34	.
CCCC(=O)N1CCC(c2c[nH]c3ccccc23)(c2c[nH]c3ccccc23)CC1	0.29	0.8
CC(=O)OC1(c2ccccc2)CC(C)(C)N(C)CC1C (configuration not stated)	-0.035	.

Nothing new here: an excerpt of the list.
compound	CapD inh	AID504770
C=CCn1c(=O)c2ccccc2n2c(SCC(=O)c3ccc[nH]3)nnc12	.	-0.45
C=CCC(NCc1ccccc1)c1ccccc1 (configuration not stated)	0.075	-0.6

Following part.
compound	CapD inh	AID504770
CC1CCN(Cn2nc(-c3ccc4c(c3)OCO4)oc2=S)CC1	.	0.1
O=C(NCCN1CCOCC1)C1CCN(c2ncc(-c3ccc(Cl)cc3)cn2)CC1	5.3	.
Cc1ccccc1-c1nc(C2CCCCC2)no1	0.58	-0.4
Cc1ccc(C(=O)Nc2cccc(O)c2)cc1	-0.14	-2.4*
Cc1onc(-c2ccccc2Cl)c1C(=O)Nc1sc2c(c1C#N)CCC(C)C2 (configuration not stated)	0.075	.
O=C(NCc1sccc1COc1ccc(Cl)cc1)Nc1ccccc1F	-0.56	0.25
Cc1cccc(C)c1-n1c(-c2cccc(S(=O)(=O)N(C)C)c2)nn(CN2CCOCC2)c1=S	.	-0.85
O=c1cc(-c2ccccc2)cc(-c2ccccc2)n1O	1.3	-2.2
CCOC(=O)c1cc(C)n(-c2ccc(C(=O)NC3CCCCCC3)cc2)c1C	0.11	0.25
O/N=C/c1c[nH]c2ccccc12	-0.78	-1.1
COc1ccc(NC(=O)CSC2=C(C#N)C(c3ccccc3)C(C(=O)Nc3ccccc3)=C(C)N2)cc1 (configuration not stated)	2.5	.
CCOC(=O)C1=C(C)N(C)C(=S)N(C)C1c1ccccc1C(F)(F)F (configuration not stated)	.	0.75
O=C(Nc1ccc(Cl)c(Cl)c1)N(Cc1ccccc1)Cc1ccccc1	0.21	-0.2
CCOc1ccc(N2CCN(C(=O)Cc3nc(-c4ccc(Cl)cc4)sc3C)CC2)cc1	1.4	.
CC1(C)C2CC[C@](C)(C2)C1NS(=O)(=O)c1ccc(Cl)cc1 (some centres not stated)	-0.88	.
COc1ccc(-c2cnc[nH]2)cc1	0.39	0.6
O=C1CC(c2ccccc2Cl)Oc2ccccc21 (configuration not stated)	-0.92	-0.9
O=C(/C=C/c1cccs1)Nc1ccc(Nc2ccccc2)cc1	-2.9	-0.4
Cc1c(C(=O)N2CCN(Cc3ccc4c(c3)OCO4)CC2)sc2ncn(CC(=O)N3CCCCC3)c(=O)c12	-0.33	.
Cc1cc(N=Cc2ccc(N3CCOCC3)cc2)ccc1Br	-0.78	-0.6

The list goes on; it opens with the 6 that closed the last part.
compound	CapD inh	AID504770
CC1(C)C2CC[C@](C)(C2)C1NS(=O)(=O)c1ccc(Cl)cc1 (some centres not stated)	-0.88	.
COc1ccc(-c2cnc[nH]2)cc1	0.39	0.6
O=C1CC(c2ccccc2Cl)Oc2ccccc21 (configuration not stated)	-0.92	-0.9
O=C(/C=C/c1cccs1)Nc1ccc(Nc2ccccc2)cc1	-2.9	-0.4
Cc1c(C(=O)N2CCN(Cc3ccc4c(c3)OCO4)CC2)sc2ncn(CC(=O)N3CCCCC3)c(=O)c12	-0.33	.
Cc1cc(N=Cc2ccc(N3CCOCC3)cc2)ccc1Br	-0.78	-0.6
O=S(=O)(NCCc1ccccn1)c1cc(Cl)cc(Cl)c1O	.	-0.3
Cc1nnc(NCCc2ccccc2)n(N)c1=O	-0.39	-0.7
COC(=O)c1cccc(Oc2nc(C)cc(C)n2)c1	-0.21	.
Cc1c(N/C=C/C(=O)c2cccs2)c(=O)n(-c2ccccc2)n1C	-3.5	0.05
N#Cc1cc2c(nc1SCC(=O)C13CC4CC(CC(C4)C1)C3)CCC2	-0.03	.
Cc1cccc(-c2nc(C#N)c(NCc3ccccc3)o2)c1	77	1.3
CCS(=O)c1ccccc1C(=O)OCC(=O)NCc1ccc(Cl)cc1 (configuration not stated)	.	0.2
CCCCCc1ccc(C(=O)CCN(C)C)cc1	-0.33	-0.8
Cc1[nH]ncc1-c1nc(-c2ccc(Cl)cc2)no1	-0.45	-0.05
CCOC(=O)/C(C#N)=C/Nc1sccc1C#N	.	-0.8
CC1(C)CC(NCc2cccs2)CC(C)(C)N1	-0.55	-0.75
CCCNC(=O)CC1C(=O)N(Cc2ccccc2)C(C)c2nc3ccccc3n21 (configuration not stated)	0.06	-1.4
CCN(CC)C(=O)Cn1cnc2ccccc2c1=O	.	2.5
CCOC(=O)c1c(NC(=O)c2ccccc2Cl)sc2c1CCN(C(=O)OCC)C2	-0.03	.
O=C(CSc1nc2ccccc2c(=O)n1CC1CCC(C(=O)NCc2ccco2)CC1)NCCC1=CCCCC1 (configuration not stated)	-0.76	.
CCCOc1ccc(C(=O)CCC(=O)O)cc1OCCC	.	-0.3
CCOC(=O)C(C)n1nc(CC)n2c(cc3occc32)c1=O (configuration not stated)	0.37	0.15
COC(=O)Oc1c(Br)c(=O)oc2ccccc12	2.7	-1.1
CC(C)(C)NS(=O)(=O)c1cccc2nonc12	-0.22	.
CC(C)(C)C1(C)OC(=O)C(=Cc2ccccc2Cl)C(=O)O1 (configuration not stated)	-0.36	-0.55
